Screening data as filed in PubChem.
RmlCD inh 1536: M. tuberculosis RmlC/RmlD coupled enzyme inhibitors, primary screen, biochemical, compound mixtures, 384-well, from 1536-well plates. dTDP-4-dehydrorhamnose reductase (Mycobacterium tuberculosis (strain ATCC 25618 / H37Rv)) …. RmlC+RmlD coupled enzyme assay, percent inhibition; primary screen in compound mixtures. inhibition, % at 3.6 µM. hit rate 0.03% among 160,000. AID 1533, 2009; in the data active means inhibition mostly above about 34%, no sharp cut-off; only retested compounds are shown here; further: some results filed as inactive read as strong as hits
Target sequence (P9WH09 whole entry, looked up): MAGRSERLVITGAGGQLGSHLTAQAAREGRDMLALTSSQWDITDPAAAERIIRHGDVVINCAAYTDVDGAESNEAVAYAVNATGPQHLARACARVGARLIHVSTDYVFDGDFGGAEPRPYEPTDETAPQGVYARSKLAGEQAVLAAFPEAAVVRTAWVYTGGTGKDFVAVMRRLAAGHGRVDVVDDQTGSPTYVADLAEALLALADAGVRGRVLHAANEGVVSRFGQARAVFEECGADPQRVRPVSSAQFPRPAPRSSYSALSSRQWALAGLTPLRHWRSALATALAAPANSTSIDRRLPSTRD
Target sequence (P9WH11 whole entry, looked up): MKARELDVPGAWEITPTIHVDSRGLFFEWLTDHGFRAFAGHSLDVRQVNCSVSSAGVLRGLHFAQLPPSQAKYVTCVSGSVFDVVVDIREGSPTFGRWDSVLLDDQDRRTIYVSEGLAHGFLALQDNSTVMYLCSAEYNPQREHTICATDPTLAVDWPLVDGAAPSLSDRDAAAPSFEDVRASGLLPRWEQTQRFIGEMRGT
RmlCD inh 1536 retest: recorded beside RmlCD inh 1536, whose call it bears; inhibition, %; measured here: mean retest inhibition;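 single compounds in two wells; values far above 100% likely come from compound fluorescence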
* marks the source's active call; other numbers are inactive results; / = no result given. Not all compounds are listed; the hit share may differ from the screen's.

Start of the data: the first two compounds, to show the layout:
SMILES	RmlCD inh 1536	RmlCD inh 1536 retest
CCOc1ccc(CN2CCN(Cc3cccn3-c3nccs3)CC2CCO)cc1 (configuration not stated)	72	-13
CCN(c1ccccc1)S(=O)(=O)c1ccc(Cl)c(C(=O)OCC(=O)NC(=O)C(C)C)c1	44	-13

The list itself (from the top)
SMILES	RmlCD inh 1536	RmlCD inh 1536 retest
CCOc1ccc(CN2CCN(Cc3cccn3-c3nccs3)CC2CCO)cc1 (configuration not stated)	72	-13
CCN(c1ccccc1)S(=O)(=O)c1ccc(Cl)c(C(=O)OCC(=O)NC(=O)C(C)C)c1	44	-13
CC(=O)NCCCc1nc2ccccc2n1Cc1ccccc1F	44	-16
COc1cc(NC(=O)C/C(C)=N/NC(=O)C(=O)NCCO)c(OC)cc1Cl	79	3
COc1cc(CCN2C(=O)c3cccc4cccc(c34)C2=O)c(S(=O)(=O)N2CCC(C)CC2)cc1OC	64	-18
Cc1ccc(C(=O)N2CCN(c3ccc(NC(=O)COc4ccccc4C)cc3)CC2)cc1	33	-2
Cc1cccc(CSc2ccc3nnc(-c4cccnc4)n3n2)c1	30	-8
CCOC(=O)CC1=NN(c2ccccc2)C(=O)/C1=C\c1ccc(N(C)C)cc1	31	4
CC(=O)OC[C@H]1O[C@@H](Sc2cccc3cccnc23)[C@H](OC(C)=O)[C@@H](OC(C)=O)[C@@H]1OC(C)=O	42	4
Nc1cc2nc[nH]c2cc1N	73	-17
Cc1ccc(C(=O)N2CC(=O)Nc3ccc(F)cc3C2c2ccccc2)cc1[N+](=O)[O-] (configuration not stated)	54	6
Cc1ccc(S(=O)(=O)N2CCN(c3ccc([N+](=O)[O-])c(NCCN4CCOCC4)c3)CC2)cc1	77	10
CC(=O)N(C)c1ccc(C(O)(C(F)(F)F)C(F)(F)F)cc1	31	-16
COc1ccccc1-n1c(-c2cc(-c3ccco3)[nH]n2)n[nH]c1=S	43	-5
CC1=CC=CN2CC(O)CN=C12 (configuration not stated)	51	11
CC(C)CCNC1=CC(=O)CC(c2ccccc2)C1 (configuration not stated)	94	-5
COc1ccccc1NC(=O)c1ccc2c(c1)nnn2C	32	6
COc1ccc2cc3c(N)nn(C(=O)c4cccc(F)c4)c3nc2c1	81	-17
CCc1ccc(NC(=O)Cn2c3[n+](c4c(F)c(F)ccc42)CCCCC3)cc1	30	6
NC(=O)Cn1nc2sc3ccccc3n2c(=O)c1=O	89	-65
COc1ccccc1NC(=O)CCCc1nc(-c2ccc(OC)c(OC)c2)no1	46	-9
CCn1cnc2sc(C(=O)Oc3ccc(Br)cc3)c(C)c2c1=O	40	2
CCOC(=O)N1CCC2(CC1)NCCc1c2[nH]c2ccccc12	37	6
NS(=O)(=O)c1ccc(NC(=O)Nc2ccc(C(F)(F)F)cc2)cc1	79	-13
Cc1ccnc(NC(=O)COC(=O)c2ccc(F)cc2F)n1	55	-7
CN(/C(=N/S(=O)(=O)c1cccs1)c1ccccc1)c1ccccc1	32	0
COCCOc1ccc(C(F)(F)F)cc1NC(=O)c1ccc(C(F)(F)F)cc1	32	-5
CN(CC(=O)Nc1cccc(C#N)c1)Cc1ccc(Cl)cc1	36	-12
Nc1c(C(=O)c2cccs2)sc2nsc(SCCN3CCCCC3)c12	44	3
COc1ccc(/C=C2\N=C(c3ccccc3Cl)NC2=O)cc1	84	-1
CSc1ccccc1C(=O)Nc1cccc([N+](=O)[O-])c1C	67	11
O=C(C1=NN[C@@H]2C(=O)N(c3ccccc3C(F)(F)F)C(=O)[C@H]12)c1ccc2ccccc2n1	39	-1
CN1CCCN(C(=O)/C=C/c2ccc(Cl)cc2Cl)CC1	66	-5
CN(NS(=O)(=O)c1ccc(Cl)cc1)c1nc(C(F)(F)F)nc2ccccc12	55	-5
CCCOc1c(Br)cc(C2C3=C(CCCC3=O)N(CC)C3=C2C(=O)CCC3)cc1OC	59	17
COc1cc(/C=N/OCC(=O)NC2CCS(=O)(=O)C2)ccc1OC(F)F (configuration not stated)	65	-8
CN(CCO)c1cc(N(C)CCO)c([N+](=O)[O-])cc1[N+](=O)[O-]	46	-13
Cn1cnnc1SCC(=O)N1N=C(c2ccc(Cl)cc2)CC1c1ccco1 (configuration not stated)	82	-3
CCN(CC)c1ccc(-n2c(O)c(C=C3N=c4ccccc4=N3)sc2=S)cc1	42	4
CCOC(=O)CC(=O)CSc1nc(CC)c(C)cc1C#N	36*	/
CSCC[C@H](NC(=O)OC(C)(C)C)C(=O)N/N=C/c1cccc2nccnc12	37	11
CC1CCC2C(C1)Nc1c(C(=O)O)cccc1C2(C)C (configuration not stated)	49	-60
CCOC(=O)C1CCN(C(=O)/C(C)=C\c2ccccc2)CC1	51	-9
CCSC1=N/C(=C\c2ccccc2)C(=O)N1c1ccc(OC)cc1	60	12
CC(=O)Nc1ccc(NC(=O)C2CC(=O)N(Cc3ccccc3)C2)cc1 (configuration not stated)	48	-2
Cc1cc(C)cc(C(=O)NCC(=O)OCC(=O)N2CCN(S(=O)(=O)c3ccc4ccccc4c3)CC2)c1	35	11
CCOC(=O)NC(=O)/C(C#N)=C/c1ccc(N(C)C)cc1	91	19
CC/C(=N\NC(=O)c1ccc(N(C)C)cc1)c1ccccc1	39	-32
CCc1ccc(S(=O)(=O)NCCc2csc(C)n2)s1	59	3
C=CCn1c(O)c(N=NC(=S)Nc2cccc(OC)c2)c2ccccc21	74	-6
O=C(Nn1cc(C(=O)N2CCN(c3ccccc3F)CC2)c2ccccc2c1=O)c1cnccn1	38	1
O=C(O)CCCNC(=O)c1ccc(NC(=O)Cc2ccc(Cl)cc2)cc1	94	14
CSc1sc(C(=O)OC(C)C)c2c1C(=O)CC(C)(C)C2	64	7
CCc1cccc(CC)c1NC(=O)c1ccccc1CCc1ccccc1	95	-4
O=S(=O)(Nc1ccccc1N1CCCCC1)c1ccc(F)cc1	40	11
CN(CCOc1ccccc1)C(=O)c1cc([N+](=O)[O-])cc([N+](=O)[O-])c1	57	-4
CCc1ccc(-c2nc(CCl)cs2)cc1	56	-3
COc1ccc(-c2c(O)c(C#N)c(-c3ccccc3)n(-c3ccc(OC)cc3)c2=O)cc1	35	-5
CCCCc1nc2sc3c(=O)n(N)cnc3c2c2c1CCCC2	61	6
COc1cc(NC(=O)CCCc2c[nH]c3ccccc23)cc(OC)c1	88	-4
(cont.)
SMILES	RmlCD inh 1536	RmlCD inh 1536 retest
O=C1CCCC2=C1C(c1ccccc1)NC(=S)N2 (configuration not stated)	44	2
O=C(N/N=C/C=C/c1ccccc1)c1ccc(Br)cc1	41	-7
CCCCN(CC)C(=O)c1ccc(-c2ccccc2)cc1	63	-5
Fc1ccc(OCCn2cnc(Cl)c2Cl)cc1	55	-12
C=CCSc1nnc2c(n1)OC(C)=Nc1ccc(Br)cc1-2	38	2
CC1CCCN(C(=O)CSc2nnc(-c3ccncc3)n2C)C1 (configuration not stated)	38	12
Cc1nc2c(c(=O)n1CCC1=CCCCC1)c1nc3ccccc3nc1n2/N=C/c1ccccc1	34*	/
COc1ccc2c(c1)N(S(=O)(=O)c1ccccc1)CCC2=O	43	6
O=C(Cc1ccc([N+](=O)[O-])cc1)NCc1ccccn1	107	2
Cc1ccc(Nc2cc(C)nc(N3CCOCC3)n2)c(C)c1	51	7
Cc1cc(C)c(NC(=O)CSc2nc3ccc(N4C(=O)c5ccccc5C4=O)cc3s2)c(C)c1	51	-14
O=C(CCN1C(=O)/C(=C/c2cccc(Br)c2)SC1=S)Nc1cccnc1	41	-14

Part of the list above, set out differently.
structure | RmlCD inh 1536 | RmlCD inh 1536 retest
CCn1cnc2sc(C(=O)Oc3ccc(Br)cc3)c(C)c2c1=O | 40 | 2
CCOC(=O)N1CCC2(CC1)NCCc1c2[nH]c2ccccc12 | 37 | 6
NS(=O)(=O)c1ccc(NC(=O)Nc2ccc(C(F)(F)F)cc2)cc1 | 79 | -13
Cc1ccnc(NC(=O)COC(=O)c2ccc(F)cc2F)n1 | 55 | -7
CN(/C(=N/S(=O)(=O)c1cccs1)c1ccccc1)c1ccccc1 | 32 | 0
COCCOc1ccc(C(F)(F)F)cc1NC(=O)c1ccc(C(F)(F)F)cc1 | 32 | -5

Further structures.
SMILES	RmlCD inh 1536	RmlCD inh 1536 retest
CCCONC(=O)Nc1ccccc1[N+](=O)[O-]	56	-14
O=C(Nn1cnnc1)c1cccc(S(=O)(=O)N2CCOCC2)c1	45	-6
Cc1ccc2ncnc(Oc3ncccc3NC(=O)C(C)(C)C)c2c1	56	-4
COc1ccc(C2=C/C(=C/c3cccnc3)C(=O)O2)cc1OC	51	-29
O=C(O)Cc1ccc(NC(=O)C(c2ccccc2)c2ccccc2)cc1	33	-8
Cc1cc(C)c2c(N)c(C(=O)N/N=C/c3cccs3)sc2n1	55*	91*
COc1ccccc1NC(CC(=O)c1ccccc1)C(=O)OCC(=O)c1ccc(Br)cc1 (configuration not stated)	34	0
COc1cc(/C=c2/sc3nc(-c4ccccc4)c(-c4ccccc4)n3c2=O)cc(OC)c1OC	35	15
O=C(c1ccccc1)c1c[nH]c(C(=O)C(Cl)(Cl)Cl)c1	30	-3
CCn1c(SCC(=O)Nc2ccc(Cl)cc2)nc2nc3c(cc2c1=O)CCCC3	61	5
Cc1ccc(NC(=O)C(=O)NCc2ccncc2)cc1	33	-6
CN(C)c1ccc(/C=C/c2ccc3ccccc3[n+]2C)cc1	89	-22
Cc1cc(/C=C2/C(=O)NC(=O)N(Cc3ccco3)C2=O)c(C)n1-c1ccccc1	94	-2
COCCCn1c(SCC(=O)NC(C)(C)C)nnc1-c1cccs1	30	-41
O=C(CNC(=S)N(Cc1ccc(F)cc1)C1CCCCC1)NCC1CCCO1 (configuration not stated)	66	3
CC(=O)Nc1sc(N/N=C/c2ccc(N(C)C)cc2)nc1-c1ccc(C)cc1	64*	41*
O=C(CSc1nnc(-c2ccncc2)n1-c1ccc(Cl)cc1)Nc1ccc(C(=O)O)cc1	70	-2
COc1ccc(-c2c(-c3ccc(O)cc3O)n[nH]c2C(F)(F)F)cc1	43	7
O=C(Cn1cnc([N+](=O)[O-])n1)N/N=C/c1ccc2ccccc2c1	79	-6
CC(C)NC(=O)NC(=O)COc1ccc(Br)cc1Br	69	6
CCOc1ccc(CN2CCN(Cc3cccc4c3OCO4)CC2CCO)cc1 (configuration not stated)	85	6
CCOC(=O)CNc1c(-c2ccc(F)cc2)nc2cnccn12	51*	143*
CCn1c(SCC(N)=O)nc2sc3c(c2c1=O)CCN(C)C3	49	-2
CC(CNS(=O)(=O)c1ccccc1)Sc1nncn1C (configuration not stated)	37	3
Cc1ccccc1CS(=O)(=O)Cc1ccc(C(=O)NCCCN2CCCC2=O)o1	35	-10
C/C(=N/NC(=O)c1ccc2c(c1)OCO2)c1ccc(Br)s1	60	2
O=C(COc1ccc(Br)cc1)N1CCN(Cc2c[nH]c3ccccc23)CC1	65	8
COc1cc(OC)cc(C(=O)NC(=S)Nc2ccc(NC(=O)c3ccco3)cc2)c1	33	3
O=C1NCCN(Cc2c(F)cccc2Cl)C1CC(=O)N1CCCO1 (configuration not stated)	56	12
Nc1nc(SCc2ccc(F)cc2)ns1	31	5
Cc1ccsc1-c1nc(CSCC(=O)NCc2ccc3c(c2)OCO3)c(C)o1	32	-12
CC(=O)Nc1ccc(S(=O)(=O)NC(C)C(=O)NC(C)c2ccccc2)cc1 (configuration not stated)	69	11
CN1CCc2c(sc(/N=C/c3c[nH]c4ccccc34)c2C(N)=O)C1	34	-7
CSc1ccccc1C(=O)NCCc1ccc(S(=O)(=O)N2CCCCC2)cc1	108	-4
C=CCn1c(N)c(C(=O)Nc2ccc(C)cc2)sc1=S	60	-9
CC(c1ccco1)N(C(=O)c1ccccc1NS(=O)(=O)c1ccc(Cl)c([N+](=O)[O-])c1)c1ccccn1 (configuration not stated)	64	-3
Cc1csc(NC(=O)c2cc(-c3ccccc3)nc3ccccc23)n1	31	9
CO/N=C(\Cn1ncc(N2CCCC2)c(Cl)c1=O)c1ccc(Cl)cc1	96	0
CC(=O)NC(CC(=O)NC1CCCCCC1)c1ccccc1 (configuration not stated)	45	2
CC1CC(C)CN(S(=O)(=O)c2ccc(C(=O)N(c3ccccn3)C3CCCCC3)cc2)C1 (configuration not stated)	53	-7
CCOc1ccccc1NC(=S)N(CCN(C)C)C(C)c1ccncc1 (configuration not stated)	65	-6
CN(C)c1ccc(NC(=O)c2cccc(C(=O)Nc3ccc(N(C)C)cc3)n2)cc1	64	0
COc1ccc(NC(=S)Nc2ccc(Oc3ccccc3)cc2)cc1	34	-5
Cc1cccc(C2C3=C(Nc4[nH]n(-c5ccccc5)c(=O)c42)c2ccccc2C3=O)c1 (configuration not stated)	59	-1
COc1ccccc1CNC(=O)C1(NC(=O)Nc2ccc(C)cc2)CCCCC1	46	2
Cc1cc(OC(=O)c2ccccc2)c([N+](=O)[O-])c(=O)[nH]1	52	9
CC(C)=NNC(=O)c1c(O)c2ccccc2[nH]c1=O	83	5
O=c1[nH]c(CSc2nnnn2-c2ccc(Cl)cc2)nc2ccccc12	42	4
O=C(OCc1c(Cl)cccc1Cl)c1ccncc1	107	5
Cc1cc(NC(=O)CCCN2C(=O)/C(=C\c3cccs3)SC2=S)no1	50	3
O=C(NC1CCCC1)c1ccc(Cn2c(=O)[nH]c3ccsc3c2=O)cc1	48	-3
N=C1c2ccccc2CN1c1cccc([N+](=O)[O-])c1	59	-3
O=C(O)c1cc(-c2ccco2)nc2ccc(Br)cc12	39	0
O=c1cc[nH]c2c(Cl)cccc12	43	2
